Screens from PubChem BioAssay.
TRPML1 agonist – agonists of human TRPML1 channel; Q9GZU1; AID 624414; TRPML1-expressing cells, Ca2+ dye fluorescence, FDSS; host cell line not named in the record; reference of the full effect not given here; activation, % (test concentration not listed); actives 0.12% (n = 410,000); in the data active = activation above about 50%; inconclusive = about 30% to 50%; inactive = below about 30%; also: 0% is about no effect; the text of the record puts the active cut at 80%
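Tet-induced TRPML1-DL cells, 1,500 per well, cultured overnight, were loaded with a no-wash Ca2+ dye for 45–90 min. Calcium fluorescence was recorded on the FDSS for 110 s after compound addition, before the EC80 agonist (4 uM 54-4) was added.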
CtBP-E1A inh – inhibitors of CtBP/E1A interaction. AlphaScreen GST-E1A/His-CtBP binding, 1536-well; hits give low values; control for the full effect not named in the record. activity change, % (no concentration beside the values). actives 0.49% (n = 340,000); in the data active means activity change below about -65%; inconclusive means about -30% to -65%; inactive means above about -30%; also: % is scaled to controls: 0 for no effect and ±100 for the full control effect; compound concentration not given in the record
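Protein mix (5X: 125 nM each GST-E1A, His-CtBP) was incubated with pinned compound 2 h at 37 deg C in dark, in 50 mM Tris pH 8.0 buffer with 300 mM NaCl. Glutathione donor and nickel acceptor beads followed; AlphaScreen signal read after 1 h.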
Six1-Eya2 blk – Six1/Eya2 interaction inhibition; AlphaScreen GST-Six1/His-Eya2 binding, biochemical; hits give low values; control for the full effect not named in the record; activity change, % (no concentration beside the values); actives 0.56% (n = 360,000); AID 651725; in the data active = activity change below about -65%; inconclusive = about -30% to -65%; inactive = above about -30%; also: % is scaled to controls: 0 for no effect and ±100 for the full control effect; compound concentration not given in the record
Target sequence (O00167 whole entry, looked up): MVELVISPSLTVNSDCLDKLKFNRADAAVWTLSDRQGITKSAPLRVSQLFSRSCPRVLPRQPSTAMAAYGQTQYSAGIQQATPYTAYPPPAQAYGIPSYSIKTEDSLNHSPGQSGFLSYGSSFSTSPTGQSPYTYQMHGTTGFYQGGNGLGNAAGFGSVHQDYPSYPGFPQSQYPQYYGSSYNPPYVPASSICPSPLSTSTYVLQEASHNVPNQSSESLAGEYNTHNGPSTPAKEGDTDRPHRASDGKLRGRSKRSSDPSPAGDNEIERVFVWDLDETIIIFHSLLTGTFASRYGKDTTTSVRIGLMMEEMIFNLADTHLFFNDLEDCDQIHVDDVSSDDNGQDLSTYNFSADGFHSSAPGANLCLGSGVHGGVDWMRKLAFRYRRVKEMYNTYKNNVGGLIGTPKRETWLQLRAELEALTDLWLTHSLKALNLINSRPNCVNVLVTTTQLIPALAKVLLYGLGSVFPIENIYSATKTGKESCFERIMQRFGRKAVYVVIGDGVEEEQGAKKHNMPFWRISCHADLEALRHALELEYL
Target sequence (Q15475 whole entry, looked up): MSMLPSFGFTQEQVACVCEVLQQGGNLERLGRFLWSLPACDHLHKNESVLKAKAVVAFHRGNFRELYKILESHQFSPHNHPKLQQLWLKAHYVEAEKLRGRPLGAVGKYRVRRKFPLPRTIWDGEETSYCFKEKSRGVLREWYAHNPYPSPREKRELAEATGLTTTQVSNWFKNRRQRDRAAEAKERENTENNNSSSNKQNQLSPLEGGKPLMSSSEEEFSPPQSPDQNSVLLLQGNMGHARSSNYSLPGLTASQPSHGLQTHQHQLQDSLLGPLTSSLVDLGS
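AlphaScreen with GST-Six1 and His-Eya2 (5X mix: 250 nM and 500 nM), glutathione donor and nickel acceptor beads; buffer 50 mM Tris pH 8.0, 300 mM NaCl, 1 mM TCEP; 1 h at 37 C in the dark.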
PINK1 modulator – PINK1 expression modulation; Potency, µM (series often up to 76.6 µM), for the others: at the top dose activation (PINK1 increase), hits mostly activators; actives 0.2% (n = 410,000); PINK1 immunofluorescence, high-content cytometry, 24 h; active = well fitted activation curve with a large enough effect; inconclusive = small, poorly fitted or top-dose-only effect; inactive = flat fitted curve, though single readings scatter; cell line not stated here;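 also: potency is read from the fitted curve at half-maximal effect; % of control where 0% means no effect; nearly all actives have a fitted effect of over 65% in size; a mitochondrial uncoupler was the plate control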
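A stable cell line was treated with compounds at 5 concentrations for 24 hours, with CCCP as control. PINK1 levels and mitochondrial localization were measured by immunofluorescence with mitochondrial, cell and nuclear markers after fixation, read by laser-scanning cytometry.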
D2 agonist – activates the human D2 dopamine receptor; actives 0.084% (n = 360,000); activation, % (test concentration not listed); DiscoveRx PathHunter D2 beta-arrestin, luminescence, 90 min; 100% = 57 uM dopamine signal; P14416; in the data active = activation above about 40%; inconclusive = about 15% to 40%; inactive = below about 15%; also: compound concentration not given in the record; the text of the record calls up to 30% inactive
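Agonist mode: compounds alone added to overnight-plated D2 PathHunter cells for 90 min at 37 C, with 57 uM final dopamine (EC100) defining full response. Beta-arrestin recruitment detected by chemiluminescent reagent, read after 1 h at ambient temperature.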
TRPML1 blocker – blocks the human TRPML1 channel; Q9GZU1; TRPML1-inducible cells, Ca2+ dye fluorescence, FDSS; hits give low values; inhibition of EC80 agonist-evoked calcium signal; activity change, negative = inhibition, % (test concentration not listed); actives 0.02% (n = 390,000); AID 624415; in the data active means activity change below about -50%; inconclusive means about -30% to -50%; inactive means above about -30%;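 also: stimulus is agonist 54-4 at its EC80 concentration; % is scaled to controls: 0 for no effect and ±100 for the full control effect; compound concentration not given in the record; the text of the record puts the active cut at -80%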
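Tet-induced TRPML1-DL cells loaded with Ca8 no-wash calcium dye were read kinetically on FDSS. Compound addition was followed by EC80 agonist 54-4 (4 uM final); inhibition was read over 110 s.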
An asterisk follows results filed as active; ? = inconclusive; / = not tested or not shown; & = joins results of further samples; [ ] = remark or other dose.

SMILES	TRPML1 agonist	CtBP-E1A inh	Six1-Eya2 blk	PINK1 modulator	D2 agonist	TRPML1 blocker
Cc1ccc(O)c(NC(=O)Cc2ccc3ccccc3c2)c1	1.4	2	0	4.6%	5.1	-10
Cc1cc(NC(=O)c2ccoc2C)no1	-0.3	-8	-1	-1.3%	-4.2	8
O=C(Nc1nc(-c2cccs2)cs1)c1ccco1	1.8	/	-6	-1.6%	-5.3	8
COc1ccc(/C=C(\C#N)c2nc3ccc(C)cc3[nH]2)cc1Oc1ccc(C(F)(F)F)cc1[N+](=O)[O-]	-0.1	-1	-2	?	-0.3	23
Nc1c(-c2ccccc2)c(CN2CCOCC2)nn1-c1ccc(F)cc1	0.4	13	4	0.0%	-0.7	18
NS(=O)(=O)c1ccc(Nc2nc(-c3ccc4ccccc4c3)cs2)cc1	1.5	-11	-6	6.6%[38.3 µM]	5.9	17
O=C(NC(=S)NCc1ccccc1)c1ccccc1	1.0	4	0	1.3%	1.0	1
O=C(CC1Sc2ccc(C(F)(F)F)cc2NC1=O)Nc1ccc(Cl)c(C(F)(F)F)c1 (stereo unspecified)	1.0	/	/	?	/	-12
Cc1c(NC(=O)C2CC(c3c(F)cccc3Cl)=NO2)c(=O)n(-c2ccccc2)n1C (stereo unspecified)	0.3	9	1	-1.7%[38.3 µM]	-0.6	-7
Cn1nc([N+](=O)[O-])c(C(C#N)c2nc3ccccc3n2C)c(Cl)c1=O (stereo unspecified)	1.5	?	?	9.8%	-8.0	23
CCOc1ccc(-c2csc(N)c2C(=O)OC)cc1	1.0	-3	-8	0.6%	-2.1	24
CCOC(=O)CCc1c(C)c2cc3c(c(C)c2oc1=O)OCN(CCc1ccccc1OC)C3	4.3	/	/	0.3%	/	-4
CC(=NCc1ccco1)c1c(O)n(C2CCCCC2)c(=O)[nH]c1=O	-1.3	-8	3	-4.9%	2.7	-5
O=C(O)C1=CCNCC1	0.7	10	3	0.4%&2.7%	-3.6	11
CCc1c(C)nc2nc(NC(C)=O)[nH]n2c1=O	-0.1	1	-2	5.2%[38.3 µM]	0.1	-1
CCOC(=O)c1cc2cc(OC)ccc2nc1C	0.3	8	3	1.7%	-8.2	16
O=P(O)(CCCP(=O)(O)CCc1ccccc1)CCc1ccccc1	-0.7	10	10	-0.8%	-3.2	-13
COc1ccc(-c2cc(C(=O)Oc3ccc([N+](=O)[O-])cc3)c3ccccc3n2)cc1	-0.4	4	-7	1.8%	-5.6	3
CCN(CC(=O)NC(C)C)Cc1nc2sc3c(c2c(=O)[nH]1)CCC3	-1.8	-17	-1	4.7%	-6.4	-11
CNCc1ccccc1Sc1cccc(O)c1	1.1	3	9	-3.0%	1.3	17
Oc1[nH]c2ccccc2c1N=Nc1c(F)c(F)c(F)c(F)c1F	0.2	-1	0	?	-3.0	-6
COc1cc(NC(=O)CSc2nnnn2C2CCCC2)cc(OC)c1	0.9	2	4	3.5%	0.0	-14
CC/C=C\[C@H](O)[C@H](O)C1=C(C)C(=O)[C@]2(O1)C(=O)N[C@@](OC)(C(=O)c1ccccc1)C2O (stereo partly specified)	/	4	7	-0.7%	-4.2	/
COc1cc(C(=O)NC2CC(C)CC(C)(C)C2)cc(OC)c1OC (stereo unspecified)	0.6	1	10	0.1%	-0.9	12
CCN(CC)c1nc(N2CCN(CCO)CC2)nc2ccccc12	/	/	5	-1.1%	2.7	/
COc1ccc(S(=O)(=O)N2CCCCCC2)cc1NC(=O)CN1C(=O)NC(C)(c2ccccc2)C1=O (stereo unspecified)	1.0	0	-2	0.4%	0.0	3
CCn1c(SCc2nc3ccccc3c(=O)[nH]2)nnc1-c1ccncc1	-0.4	0	-2	/	-4.1	-2
COC(=O)c1ccc(NC(=O)CSc2ccc(-c3cccs3)nn2)cc1	3.8	/	/	2.6%	/	-7
CCCn1c(=O)c2ccccc2n2c(SC(C)C(N)=O)nnc12 (stereo unspecified)	0.7	2	5	-0.3%	-3.7	-7
O=S(=O)(NC1=NCCC1)c1cccc(NC(=S)NCCc2ccccc2)c1	-0.4	2	1	-0.2%	-0.7	7
O=C(CCC(=O)N1CCN(c2ccc(F)cc2)CC1)c1ccc(Cl)cc1	-0.1	5	-3	-1.4%	-3.0	8
CN(Cc1ccccc1)C(=O)Nc1c(Cl)cccc1Cl	-1.0	-18	-2	0.4%	-5.4	/
CCOCCCNC(=O)CN1C(=O)COc2ccc(S(=O)(=O)N3CCOCC3)cc21	-0.7&0.0	3	3	0.3%&2.5%	-1.9	4&-6
COC(=O)[C@]12CCCCC=C1N(CCC1=CCCCC1)C(=O)[C@H](CC(=O)NCc1cccc3ccccc13)C2	0.3	-5	-20	2.0%	/	/
O=C(Nc1ccccc1C(=O)NC(Cc1ccccc1)C(=O)NC1CCCCC1)c1ccccc1 (stereo unspecified)	2.9	0	-10	7.7%	-2.0	-3
CC(C)CNC(=O)COC(=O)c1ccccc1OCC(=O)Nc1ccc(Br)cc1	0.0	-3	9	12%	0.6	-7
CCOc1ccc2nc(SCC(=O)N(CC(C)C)c3c(N)n(CC(C)C)c(=O)[nH]c3=O)[nH]c2c1	-0.7	-22	3	-2.4%	4.7	-7
O=C(c1ccc(F)cc1)n1ccc(-c2cnc(-c3ccccc3)s2)n1	-0.9	1	-1	4.8%	-3.3	-12
COCCn1c(N)c(N(Cc2ccccc2)C(=O)C2=COCCO2)c(=O)[nH]c1=O	0.3	8	2	0.7%	-0.8	3
CCOC(=O)C(NCc1ccco1)(NC(=O)c1ccccc1)C(F)(F)F (stereo unspecified)	-0.4	4	-1	1.8%	-1.2	11

Of the compounds above, these have a furan ring, fused or not:
SMILES	TRPML1 agonist	CtBP-E1A inh	Six1-Eya2 blk	PINK1 modulator	D2 agonist	TRPML1 blocker
Cc1cc(NC(=O)c2ccoc2C)no1	-0.3	-8	-1	-1.3%	-4.2	8
O=C(Nc1nc(-c2cccs2)cs1)c1ccco1	1.8	/	-6	-1.6%	-5.3	8
CC(=NCc1ccco1)c1c(O)n(C2CCCCC2)c(=O)[nH]c1=O	-1.3	-8	3	-4.9%	2.7	-5
CCOC(=O)C(NCc1ccco1)(NC(=O)c1ccccc1)C(F)(F)F (stereo unspecified)	-0.4	4	-1	1.8%	-1.2	11

Next compounds:
SMILES	TRPML1 agonist	CtBP-E1A inh	Six1-Eya2 blk	PINK1 modulator	D2 agonist	TRPML1 blocker
CN(C)C(=O)CCN1CCOCC1	0.6	0	0	-0.8%	0.0	4
O=C1NCCN1C(=O)c1ccccc1F	-0.7	5	0	-0.8%	-3.3	-2
O=C(CCS(=O)(=O)c1nc(-c2ccc3c(c2)OCO3)cc(C(F)(F)F)n1)Nc1ccc(Br)cc1	2.8	/	/	-0.3%	/	38
CCn1nc(NC(=O)c2ccncc2)c2cc3cccc(C)c3nc21	0.4	8	0	?	-1.3	3
O=C(CN(C(=O)c1csnn1)c1ccccc1Cl)NC1CCCC1	-0.3	6	9	3.5%	0.2	-10
COc1cc2c(cc1NC(=S)Nc1cccc(C)c1)oc1ccccc12	0.1	-21	-17	5.7%[38.3 µM]	-1.6	3
O=C(NCc1ccccc1)c1cc(C2CCCCN2C(=O)c2ccc3c(c2)CCO3)on1 (stereo unspecified)	-0.9	10	1	-0.5%	-3.8	/
Cc1ccc(C(=O)O)cc1NC(=O)c1nsc2ccccc12	0.4	/	/	0.9%	/	7
COc1ccc(CCNC(=O)COc2nncc3ccccc23)cc1	-0.6	-18	3	1.0%	1.8	24
COc1ccc(CCNC(=O)c2cccs2)cc1OC	-0.4	-4	4	1.3%	-1.6	20
CCC(C)(C(=O)NC1CCCCC1)N(Cc1cccs1)C(=O)c1ccc(=O)[nH]c1 (stereo unspecified)	-0.3	-2	2	-0.8%	-5.5	-7
c1ccc(-c2ccc3ccccc3n2)cc1	0.1	10	19	4.0%	-1.3	19
Clc1cccc(-c2nc3c4ccccc4ccn3c2Cc2ccccc2)c1	1.4	12	5	-0.9%	-6.4	44
C=Cc1ccc(Cn2c(C(=O)O)c(CNCc3cc(OC)ccc3OC)c3ccc(C)cc32)cc1	3.2	/	/	1.7%	/	16
CCOC(=O)C1CCN(C(=O)c2ccc(Cl)c(S(=O)(=O)N3CCCC3)c2)CC1	-0.7	14	4	1.1%	1.8	2
Cn1c(=O)cc(SCC(=O)NCc2ccc(F)cc2)c2ccccc21	0.3	-9	1	4.7%	-1.2	22
CCn1c(C(O)c2ccccc2)nc2ccccc21 (stereo unspecified)	-0.3	5	0	-2.6%[38.3 µM]	1.6	0
CC(=O)N1CCc2cc(S(=O)(=O)CCC(=O)NCc3ccc(C)o3)ccc21	-0.1	0	0	0.9%	1.2	28
O=C(NCCO)C(=O)NCC(c1ccc2c(c1)OCO2)N1CCN(c2ccc(F)cc2)CC1 (stereo unspecified)	-0.2	/	-5	0.8%	-0.9	-6
COC(=O)CSc1nc(-c2ccccc2)nc2ccc(F)cc12	2.0	6	11	/	-0.2	18
CCN(CC)c1ccc(NC(=O)c2cnn(-c3ccccc3)c2-n2cccc2)c(C)c1	?	/	/	0.7%	/	-18
Cc1n[nH]c(C)c1-c1nc2ccccc2[nH]1	-0.2	0	9	1.0%	-3.2	11
NS(=O)(=O)c1ccc(CNC(=O)/C=C/c2cccc([N+](=O)[O-])c2)cc1	1.0	0	4	1.6%	5.4	-2
CCOc1ccc(OCc2ccc(C(=O)O)o2)cc1	-0.4	14	0	-0.9%	-1.0	-4
CCN(CC(=O)Nc1ccc(OC)cc1)C(=O)COc1cccc2c1OC(C)(C)C2	0.4	-1	7	-2.9%	0.7	1
CN(CC(O)COCc1ccccc1F)C1CCCCC1 (stereo unspecified)	0.5	-12	5	0.4%	-3.2	-8
CCOc1ccc(C(=O)Nc2nc(-c3ccc(Br)cc3)ns2)cc1	1.3	/	/	0.4%	/	2
Cc1ccc2nc(-c3ccc(NC(=S)NC4CC(C)(C)NC(C)(C)C4)cc3)sc2c1	6.9	-24	23	-1.0%	-9.0	-9
COc1ccccc1CCNC(=O)c1cc(-c2ccccn2)nc2ccccc12	3.0	3	5	-0.8%	-1.0	12

Four entries from above, with each value named:
> CN(CC(O)COCc1ccccc1F)C1CCCCC1 (stereo unspecified)
  TRPML1 agonist = 0.5
  CtBP-E1A inh = -12
  Six1-Eya2 blk = 5
  PINK1 modulator = 0.4%
  D2 agonist = -3.2
  TRPML1 blocker = -8
> CCOc1ccc(C(=O)Nc2nc(-c3ccc(Br)cc3)ns2)cc1
  TRPML1 agonist = 1.3
  CtBP-E1A inh = /
  Six1-Eya2 blk = /
  PINK1 modulator = 0.4%
  D2 agonist = /
  TRPML1 blocker = 2
> Cc1ccc2nc(-c3ccc(NC(=S)NC4CC(C)(C)NC(C)(C)C4)cc3)sc2c1
  TRPML1 agonist = 6.9
  CtBP-E1A inh = -24
  Six1-Eya2 blk = 23
  PINK1 modulator = -1.0%
  D2 agonist = -9.0
  TRPML1 blocker = -9
> COc1ccccc1CCNC(=O)c1cc(-c2ccccn2)nc2ccccc12
  TRPML1 agonist = 3.0
  CtBP-E1A inh = 3
  Six1-Eya2 blk = 5
  PINK1 modulator = -0.8%
  D2 agonist = -1.0
  TRPML1 blocker = 12

Compounds were not picked by outcome, and some 1% of all compounds hit somewhere here.
